High-throughput results from PubChem BioAssay.
RecA splice inh – Mtb RecA intein splicing inhibition. cell-free RecA intein splicing, fluorescence. inhibition, %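 (about 9 µM by stock and volumes)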. 0.75% of 290,000 active. AID 2221; in the data active = inhibition above about 30%; inconclusive = no clear call, values can overlap the other calls;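 note: 0% = vehicle wells and 100% = reference inhibitor control wells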
Target sequence (P9WHJ3 whole entry, looked up, canonical isoform): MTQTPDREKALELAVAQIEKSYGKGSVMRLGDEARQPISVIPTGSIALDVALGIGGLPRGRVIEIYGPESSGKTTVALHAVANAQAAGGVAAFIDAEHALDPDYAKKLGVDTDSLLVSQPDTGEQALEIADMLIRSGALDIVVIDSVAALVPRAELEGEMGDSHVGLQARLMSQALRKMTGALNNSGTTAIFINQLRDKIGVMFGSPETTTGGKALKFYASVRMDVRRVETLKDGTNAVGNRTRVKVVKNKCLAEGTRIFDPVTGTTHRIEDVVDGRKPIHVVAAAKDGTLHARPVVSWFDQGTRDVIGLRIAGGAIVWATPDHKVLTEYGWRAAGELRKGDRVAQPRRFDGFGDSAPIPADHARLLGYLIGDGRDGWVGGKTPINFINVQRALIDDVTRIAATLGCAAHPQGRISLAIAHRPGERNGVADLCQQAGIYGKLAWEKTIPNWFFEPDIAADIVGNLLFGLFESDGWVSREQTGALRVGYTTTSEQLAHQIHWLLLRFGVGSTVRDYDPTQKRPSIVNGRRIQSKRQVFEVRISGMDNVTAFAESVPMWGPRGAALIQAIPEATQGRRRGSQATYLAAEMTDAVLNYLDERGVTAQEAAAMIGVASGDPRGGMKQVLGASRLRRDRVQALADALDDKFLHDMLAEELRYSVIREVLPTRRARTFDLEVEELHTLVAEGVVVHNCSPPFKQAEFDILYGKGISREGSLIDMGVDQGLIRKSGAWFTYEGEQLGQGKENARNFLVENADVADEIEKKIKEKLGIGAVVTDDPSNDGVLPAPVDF
YopH inh – blocks Yersinia enterocolitica YopH tyrosine phosphatase; inhibition, %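 (about 10 µM by stock and volumes)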; AID 898; 0.16% of 140,000 active; fluorescence Ex485/Em525;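 active = inhibition of 50% or more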;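 note: controls were vehicle for no effect and minimum signal wells for full effect; inactives centre near -20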
Arbovirus inh – antivirals against arbovirus infection. arbovirus infection cell-based antiviral screen. inhibition, % at 10 µM. 0.37% of 200,000 active;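 active = inhibition from about 30%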;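 note: bluetongue infection of BSR cells; cell survival read as ATP light after 72 h; 0% = infected wells without compound and 100% = uninfected wells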
Mtb growth – M. tuberculosis H37Rv growth inhibitors, H37Rv strain (AID 1626); M. tuberculosis H37Rv growth inhibition; higher % means a stronger effect; inhibition, % at 10 µM; hits with a dose series show IC50 in µM; 0.95% of 220,000 active;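 active = confirmed in a dose series; inconclusive = inhibition above 80% but not taken into the dose series; inactive = below 80% or under 30% at every dose of the series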;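 note: bacteria incubated seven days before Alamar blue readout; 0% = bacteria only wells and 100% = bacteria with antibiotic wells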
Mtb bLac sens – beta-lactam sensitization of Mtb H37Rv. M. tuberculosis H37Rv growth with meropenem, percent inhibition; hits of this screen are not shown here. inhibition, % at 25 µM. 0.27% of 330,000 active. AID 434955;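 active = about 74% or more and at least 40 points above the plate without the antibiotic, then above 30% in a dose series; inconclusive = first-round hits that could not be retested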;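 note: growth measured after seven days incubation then overnight dye step; 0% = bacteria only wells and 100% = bacteria with antibiotic; twin plates without the antibiotic show which effects depend on it; some results filed as inactive read as strong as hits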
Arbovirus inh repeat – also measured in Arbovirus inh; calls as there; inhibition, %; measured here: 10K subset replicate screen; many hits read low in the repeat;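 first of two repeat runs on a subset; 0% = infected and 100% = uninfected wells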
Numbers without * were called inactive; u = inconclusive; x = not tested or not shown.

SMILES	RecA splice inh	YopH inh	Arbovirus inh	Mtb growth	Mtb bLac sens	others
O=C(CN(C(=O)CNC(=O)c1cccs1)c1cccc(F)c1)NC1CCCC1	2.6	x	x	x	1
COC(=O)c1cc(NC(=S)NC(=O)c2ccccc2)ccc1N1CCOCC1	-0.2	x	x	x	-17
CN1CCN(C(=O)c2c(NC(=O)c3ccco3)sc3c2CCC(C(C)(C)C)C3)CC1 (stereo unspecified)	x	-46	-13	-5%	1	Arbovirus inh repeat=-10
CN(Cc1ccccc1)S(=O)(=O)c1ccc(OCC(=O)N2CCOCC2)cc1	-1.1	-10	-5	-2%	3
Cc1cc(S(=O)(=O)NC2CCCCC2)ccc1OCC(=O)N1CCOCC1	-0.9	-37	4	6%	u
N#Cc1cc2c(nc1Cl)CCCC2	-4.9	-21	3	-14%	-4
COC(=O)C1=C(C)NC(=O)CC1c1cccc(Cl)c1Cl (stereo unspecified)	2.2	-22	-3	-2%	-2	Arbovirus inh repeat=1
COc1cccc(CN2CCN(CCCc3ccccc3)C(CCO)C2)c1OC (stereo unspecified)	2.0	x	x	x	-9
Clc1ccc2oc(-c3ccccc3)cc(=NCCCN3CCOCC3)c2c1	x	x	-4	10%	x
Cc1cccc(-c2nnc(SCc3ccc(C#N)cc3)n2Cc2ccco2)c1	2.0	-11	2	5%	x
COc1ccc(C2=NN(C(=O)CSc3nc(=O)n4cc(C)ccc4n3)C(c3ccc(C)cc3)C2)cc1 (stereo unspecified)	-0.2	x	x	x	-8
COc1ccccc1CNC(=O)c1ccc(Cl)c(NC2=NC3CS(=O)(=O)CC3S2)c1 (stereo unspecified)	0.2	x	x	x	6
CC(C)=CC(=O)OCC(=O)NC1CCCc2ccccc21 (stereo unspecified)	x	x	3	4%	4
CCC(C)NC(=O)c1cn(CC)c2ccc(S(=O)(=O)N(C)C)cc2c1=O (stereo unspecified)	1.5	-16	1	-7%	u	Arbovirus inh repeat=3
Cc1cc(=O)[nH]c(SCC2(O)C3CC4CC(C3)CC2C4)n1 (stereo unspecified)	1.4	-43	3	0%	-4
COc1ccc(S(=O)(=O)NC2CCCC2)c(Cl)c1Cl	0.0	-13	-5	-1%	-6
O=C(Nc1cccc([N+](=O)[O-])c1)c1ccc2c(c1)OCO2	-1.0	-13	-11	0%	5
CC(NC(=O)[C@H](Cc1c[nH]c2ccccc12)NC(=O)[C@@H]1Cc2ccccc2CN1)c1ccccc1 (stereo partly specified)	11	x	x	x	-3
O=C(Nc1nc2ccc(F)cc2s1)C1=COCCO1	-1.1	x	x	x	1
CC12CN3CC(=O)N4CC5(C)CN(CC(C)(C4)C5=O)C(=O)CN(C1)CC(C)(C3)C2=O	-1.6	-49	9	1%	-14

A section of the results above:
SMILES	RecA splice inh	YopH inh	Arbovirus inh	Mtb growth	Mtb bLac sens	others
COc1ccc(C2=NN(C(=O)CSc3nc(=O)n4cc(C)ccc4n3)C(c3ccc(C)cc3)C2)cc1 (stereo unspecified)	-0.2	x	x	x	-8
COc1ccccc1CNC(=O)c1ccc(Cl)c(NC2=NC3CS(=O)(=O)CC3S2)c1 (stereo unspecified)	0.2	x	x	x	6
CC(C)=CC(=O)OCC(=O)NC1CCCc2ccccc21 (stereo unspecified)	x	x	3	4%	4

Returning to the listing, starting 5 compounds before the break.
SMILES	RecA splice inh	YopH inh	Arbovirus inh	Mtb growth	Mtb bLac sens	others
COc1ccc(S(=O)(=O)NC2CCCC2)c(Cl)c1Cl	0.0	-13	-5	-1%	-6
O=C(Nc1cccc([N+](=O)[O-])c1)c1ccc2c(c1)OCO2	-1.0	-13	-11	0%	5
CC(NC(=O)[C@H](Cc1c[nH]c2ccccc12)NC(=O)[C@@H]1Cc2ccccc2CN1)c1ccccc1 (stereo partly specified)	11	x	x	x	-3
O=C(Nc1nc2ccc(F)cc2s1)C1=COCCO1	-1.1	x	x	x	1
CC12CN3CC(=O)N4CC5(C)CN(CC(C)(C4)C5=O)C(=O)CN(C1)CC(C)(C3)C2=O	-1.6	-49	9	1%	-14
O=C(NCCOc1ccc(F)cc1)C1CCC(=O)N(CC2CCCCC2)C1 (stereo unspecified)	2.5	x	x	x	-4
S=C1N(c2ccccc2)C(c2ccc(Cl)cc2)N2CCCN12 (stereo unspecified)	4.1	-19	4	6%	-12
O=C(CS(=O)(=O)c1ccc(Cl)cc1)NCCS(=O)(=O)c1ccc(Cl)cc1	-2.5	x	4	0%	0
N#C/C(=N\O)c1nc2ccccc2[nH]1	-1.8	-26	-1	-3%	3
CCc1c(C)c(C#N)c2nc3ccccc3n2c1NCc1ccccn1	-40	x	-3	8%	4
COc1ccc(NC(=O)c2ccc(CN(c3cc(Cl)ccc3C)S(=O)(=O)c3ccccc3)cc2)cc1OC	1.3	-24	-19	7%	3
Cc1ccc(-n2c(SCC(=O)NCc3ccco3)nc3sc(C)c(C)c3c2=O)cc1	2.5	-24	-1	-8%	-2
O=C(Nc1ccccc1N1CCOCC1)c1ccc2c(c1)OCCO2	-2.7	x	x	x	-5
CC(Sc1nc2ncc(Cl)cc2[nH]1)C(=O)Nc1ccc(C(N)=O)cc1 (stereo unspecified)	-1.7	x	x	x	0
NC(=O)c1ccccc1NC(=O)c1ccoc1	5.6	x	x	x	u
O=C(c1ccc(CSc2ccccc2)cc1)N1CCCCCC1	8.6	-17	-4	-3%	-1
CC1CN(CCCCOc2ccc3ccccc3c2)CC(C)O1 (stereo unspecified)	-0.8	-26	-3	2%	7
S=c1[nH]nc(-c2cc3ccccc3o2)n1Cc1ccccc1	-1.0	-12	10	15%	4
O=C(O)c1ccc(N=NN2CCOCC2)cc1	6.3	-3	-3	2%	0
COc1ccccc1/C=C1\SC(=O)N(CCC(=O)NCCCn2ccnc2)C1=O	1.4	x	x	x	-2
N/C(=C\C(=O)c1cc(Cl)ccc1O)C(Cl)(Cl)Cl	-3.9	x	x	9%	40
Nc1nnc(SCCOc2ccccc2)s1	0.4	-35	4	3%	-4
CCN(CCCCN1C(=O)c2ccccc2C1=O)c1ccc2c(c1)C(=O)N(C)C2=O	-7.8	-9	9	12µM*	100
CCOC(=O)N1CCN(CC(O)COc2ccc(C(C)C)c(C)c2)CC1 (stereo unspecified)	-1.1	x	x	x	3
CC1(CC(=O)O)SC(=O)NC1=O (stereo unspecified)	-0.9	-36	7	-9%	2
CS(=O)(=O)N(CC(=O)N1CCN(c2ccccc2F)CC1)c1cc(C(F)(F)F)ccc1Cl	-1.7	-27	7	1%	3	Arbovirus inh repeat=13
Cc1cc(C)cc(Oc2coc3cc(OC(=O)c4cccnc4)ccc3c2=O)c1	4.3	-34	3	1%	7
COc1ccc(-n2cc(-c3ccccc3)nc2SC)cc1	12	-26	15	9%	81
COc1ccc(N(CC(=O)Nc2ccccc2C)S(=O)(=O)c2c(C)[nH]c(=O)[nH]c2=O)cc1	-1.1	x	x	3%	-8
CCCC(=O)N1CCN(C2=NS(=O)(=O)c3ccccc32)CC1	-4.1	-35	10	-5%	5	Arbovirus inh repeat=0
O=C(N/N=C/c1cc2c(cc1Br)OCO2)c1ccccn1	-0.2	x	x	1%	12
Cc1ccc2c(c1)-c1cc(C)nn1C(c1sccc1C)N2 (stereo unspecified)	3.7	-32	-1	1%	38
COc1ccc(NS(=O)(=O)c2cccc(N/C(=N\S(=O)(=O)c3ccccc3)c3ccc(F)cc3)c2)cc1	6.7	-46	-20	13%	6
Cc1ccc(Cl)cc1NC(=O)c1cc(NC(=O)C2CCCCC2C(=O)O)ccc1N1CCOCC1 (stereo unspecified)	0.1	x	x	x	-4
COCCNC(=S)N/N=C(\C)c1ccc(C)c([N+](=O)[O-])c1	1.2	0	-10	-2%	69
O=C(NC(=S)Nc1ccc(S(=O)(=O)NC2CCCCC2)cc1)c1cccs1	9.2	-20	-1	-6%	8
COc1ccc(-c2ocnc2C(=O)Nc2ccc(N3CCOCC3)cc2N2CCOCC2)cc1OC	-0.1	x	x	x	36
C/C(Cn1nnc2ccccc21)=N\OC(=O)c1ccccc1C	0.9	-6	-8	6%	-7
Cc1ccc2c(c1)sc1nc(=O)n(-c3ccc(Cl)c(Cl)c3)c(=O)n12	x	-29	9	-7%	7
O=C(NCc1ccco1)c1cnccn1	0.3	-30	0	-2%	-6	Arbovirus inh repeat=11
COC(=O)c1ccc(N=C(c2ccccc2)c2c(O)n(C)c(=O)n(C)c2=O)cc1	-3.4	x	x	66%	71
Cc1ccc(-c2n[nH]c(=S)n2/N=C/c2ccc(C)s2)cc1	-0.3	-34	3	27%	-4
O=C1CCCc2c1sc1nc3n(c(=O)c21)CCCCC3	-0.3	-21	2	5%	-5
CC12CCC(C(=O)N3CCN(Cc4ccccc4)CC3)(OC1=O)C2(C)C (stereo unspecified)	1.8	1	4	-1%	11
Cc1cc(C)c2nc(NC(=O)c3ccco3)sc2c1	-3.6	x	x	x	-2
Cn1cccc1Cc1nnc(SCC(=O)N2CCCCCC2)n1CCc1ccccc1	2.8	-27	2	-6%	9	Arbovirus inh repeat=0
C=CCOc1ccc(Br)cc1CNC(C)(C)CO	x	x	-2	9%	17
Cc1ccc(Oc2ccc(NC(=O)CSc3n[nH]c(N)n3)cc2)cc1	1.5	-32	-16	7%	-1
CN1CCN(C2=Cc3ccc(Cl)cc3Sc3ccc(F)cc32)CC1	15	-7	-38	11µM*	99
COc1ccc(C(C)=O)cc1CC(=O)Nc1ccc2c(c1)CCC2	0.1	x	x	x	13
CCSc1nnc(NC(=O)[C@@H](NC(=O)c2cccc(C)c2)C(C)C)s1	-4.7	-28	20	0%	-8
CCOC(=O)c1sc2nc(SC)nc(-c3ccccc3)c2c1N	-2.0	-20	3	-14%	u
Cc1nc2ccc([N+](=O)[O-])cc2c(=O)n1Cc1ccc(Cl)cc1	0.6	x	x	x	0
CCC(=O)Nc1c2c(nn1-c1ccc(C)cc1)CS(=O)(=O)C2	1.8	x	x	x	u
O=C(O)C1CCCN(CCC=C(c2ccccc2)c2ccccc2)C1 (stereo unspecified)	-1.4	x	x	-9%	2
O=C(c1ccc(F)cc1)c1c[nH]c(C(=O)NCc2cccnc2)c1	0.0	-7	-6	1%	4
COc1ccc(/C=C(/C(=O)Nc2ccccc2C(=O)NC(C)C)c2ccccc2)cc1	5.5	-31	-8	2%	11
Fc1ccccc1/C=C1\CCCC2=C1Nc1ncnn1C2c1ccccc1F (stereo unspecified)	x	1	-24	29%	80
CC1CCc2c(sc3ncnc(SC(C)C(=O)NCC4CCCO4)c23)C1 (stereo unspecified)	-2.3	x	x	x	-11
CCN(Cc1ccccc1)C(=O)CCCOc1ccccc1	x	10	-5	5%	3
CC(=O)C1=C(C)NC2=C(C(=O)c3ccccc32)C1c1ccccc1 (stereo unspecified)	-77	x	-3	2%	3
Cc1ccc(C2(c3noc(CN4C[C@@H](C)O[C@@H](C)C4)n3)CCCC2)cc1	-0.6	x	2	1%	18
CCCCCSc1nnc2c(n1)OC(c1cccn1C)N(C(C)=O)c1ccccc1-2 (stereo unspecified)	6.5	-35	7	-12%	3
CN(C)c1ccc(C(=S)N2CCCCC2)cc1	-5.0	x	-2	-4%	-5
CC(=O)N1N=C(c2ccc(C)cc2)OC1c1ccc(Br)cc1 (stereo unspecified)	3.3	x	2	-10%	-4

The closing 2 compounds of the part before come first, to join the parts:
SMILES	RecA splice inh	YopH inh	Arbovirus inh	Mtb growth	Mtb bLac sens	others
CN(C)c1ccc(C(=S)N2CCCCC2)cc1	-5.0	x	-2	-4%	-5
CC(=O)N1N=C(c2ccc(C)cc2)OC1c1ccc(Br)cc1 (stereo unspecified)	3.3	x	2	-10%	-4
O=C(Cc1c[nH]c2ccccc12)Nc1cccc(S(=O)(=O)N2CCCCC2)c1	7.6	x	-1	0%	1
Cc1ccc(C)c(S(=O)(=O)N2CCCC2CNC(=O)C(=O)NCc2ccccc2)c1 (stereo unspecified)	1.1	x	x	x	-13
COc1ccc(-c2nc(C#N)c(NCc3ccc(F)cc3)o2)cc1OC	3.0	-51	20	-1%	8
C=CCN1C(=O)C(O)(CC(=O)c2ccccc2)c2ccccc21 (stereo unspecified)	-0.6	-35	-21	-10%	18
O=C(CN(C(=O)c1csnn1)c1ccc(Cl)cc1)NC1CCCC1	-0.1	x	x	x	-1
CCc1nnc(NC(=O)C2CC(=O)N(C3CCCCC3)C2)s1 (stereo unspecified)	6.7	x	x	x	-20
Cn1ccc(NC(=O)Nc2ccc(Cl)cc2Cl)n1	-1.9	-20	-8	-5%	2
O=C1NCCN(Cc2ccc(F)cc2)C1CC(=O)N1CC=C(c2ccccc2)CC1 (stereo unspecified)	-0.2	x	x	11%	-8
O=C(O)c1ccc(-c2nnc(-c3ccc([N+](=O)[O-])cc3)o2)cc1	-0.7	x	x	x	2
CCOC(=O)c1cccc(NC(=O)C2CCCN2S(=O)(=O)c2cccc3cccnc23)c1 (stereo unspecified)	0.2	-15	1	-10%	2	Arbovirus inh repeat=1

A portion of the library; rates above refer to the full screens.
